High-throughput results: PubChem, several laboratories
RGS16-Gao = RGS16-Galphao interaction regulator (human) | AID 1441 | 0.38% of 220,000 active | bead-based flow cytometry RGS16-Galphao binding, fluorescence; actives lie on both sides | O15492+P09471 | binding response (% of control), % at 10 µM;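 active = below 25% or above 175%, edge rows of some plates excepted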;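 also: Galphao activated by GDP with aluminum fluoride before binding; 100% = wells without compound and 0% = beads without RGS; some results beyond the cut were filed as inactive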
Insulin prom inh = TRM-6 insulin promoter activity inhibition; TRM-6 cells (human fetal islet line), insulin promoter-eGFP reporter, imaging; reporter expression induced with tamoxifen; inhibition, % at 2 µM; 0.9% of 130,000 active; AID 1273;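 active = inhibition above the mean plus 3 SD, with well images judged a real hit on visual review, cut at about 60% in these data, passing the limit was not always enough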
HSV augment = HSV replication enhancement; 0.005% of 220,000 active; HSV replication augmentation in cells, fold increase; maximum fold increase; AID 1956;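 active = peak rise of 1.5-fold or more in the series; tested in PC3 cells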;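 also: first round at 10 µM; read as green reporter fluorescence; hits show the peak of a series up to 25 µM; 1 = signal of infected wells without compound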
GALR2 ag = GALR2 (human) receptor agonism. 0.48% of 140,000 active. GALR2-expressing cells, agonist activation read-out. activation, %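 (tested at 5 µM)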. O43603;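 active = above mean plus 3 SD of all compounds, about 5% in these data, not always enough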;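 also: 0% = vehicle buffer wells and 100% = reference agonist at full effect; tested in CHO reporter cells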
PKD1 kinase inh = inhibitors of human PKD1 kinase; Q15139; PKD1 kinase fluorescence polarization assay; inhibition, %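 (about 10 µM by stock and volumes)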; 0.056% of 200,000 active; AID 797;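 active = inhibition of 50% or more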;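 also: controls were vehicle for no effect and a reference inhibitor for full effect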
Target sequence (Q15139 whole entry, looked up): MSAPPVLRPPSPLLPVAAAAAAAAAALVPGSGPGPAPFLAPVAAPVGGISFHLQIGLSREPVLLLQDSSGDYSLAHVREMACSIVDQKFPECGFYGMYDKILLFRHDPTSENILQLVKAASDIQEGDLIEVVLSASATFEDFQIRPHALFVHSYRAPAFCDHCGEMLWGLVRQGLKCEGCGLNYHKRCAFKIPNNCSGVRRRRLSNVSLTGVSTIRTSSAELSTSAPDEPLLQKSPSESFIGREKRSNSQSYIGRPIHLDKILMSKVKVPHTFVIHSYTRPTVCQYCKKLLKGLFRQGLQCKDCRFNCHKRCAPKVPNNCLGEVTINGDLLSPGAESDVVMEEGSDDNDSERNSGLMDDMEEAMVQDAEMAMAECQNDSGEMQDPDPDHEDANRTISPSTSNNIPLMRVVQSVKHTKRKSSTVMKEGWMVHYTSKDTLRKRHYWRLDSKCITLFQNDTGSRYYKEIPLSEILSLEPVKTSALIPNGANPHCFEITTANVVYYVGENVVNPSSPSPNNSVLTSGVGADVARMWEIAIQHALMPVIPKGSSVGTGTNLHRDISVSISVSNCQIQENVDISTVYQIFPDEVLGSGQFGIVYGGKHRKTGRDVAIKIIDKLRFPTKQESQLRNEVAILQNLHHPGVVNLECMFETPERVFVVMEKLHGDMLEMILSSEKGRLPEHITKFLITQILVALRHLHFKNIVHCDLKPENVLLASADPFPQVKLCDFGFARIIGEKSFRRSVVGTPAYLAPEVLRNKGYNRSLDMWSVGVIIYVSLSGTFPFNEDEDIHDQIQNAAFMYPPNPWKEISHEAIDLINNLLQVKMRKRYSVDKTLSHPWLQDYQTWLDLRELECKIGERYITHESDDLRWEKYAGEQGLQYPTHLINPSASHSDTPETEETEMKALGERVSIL
Insulin prom inh cell count = also measured in Insulin prom inh; calls as there; normalized cell count, %; measured here: cell count, toxicity; reference of the scale not given here;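 cells exposed to compound for 48 h; stained nuclei by imaging scaled within each plate; lower means fewer cells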
HSV augment primary fold = recorded beside HSV augment, whose call it bears; fold increase; compound at 10 µM; measured here: primary screen fold increase 10 uM; tested in PC3 cells;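 GFP signal in the first replicate; 1 = infected wells without compound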
Active calls of the source: *; i = inactive; . = not tested or not shown. Rows are unselected; 1.3% or so of the library scored in one or more.

SMILES	RGS16-Gao	Insulin prom inh	Insulin prom inh cell count	HSV augment	HSV augment primary fold	GALR2 ag	PKD1 kinase inh
CCOc1ccccc1NC(=O)/C=C/c1ccccc1[N+](=O)[O-]	12	-35	79	i	0.93	0.1	-4
CCn1c2ccccc2c2cc(CN3CCN(S(C)(=O)=O)CC3)ccc21	102	13	100	i	0.9	0.7	-6
Cc1ccc(N2C(=O)[C@@H]3C(c4ccc(F)cc4)=NO[C@@H]3C2=O)cc1	100	.	.	i	1.1	-3.7	-17
COc1ccc(-c2cc(C(=O)Nc3ccc(O)cc3)c3ccccc3n2)cc1OC	99	.	.	i	0.68	.	.
CCCN1Cc2cccc(C(=O)NCCCOC(C)C)c2C1=O	100	.	.	i	0.75	0.0	-10
COC(=O)c1ccccc1NC(=O)CCS(=O)(=O)c1ccc(Br)s1	102	-12	122	i	0.77	-2.8	-3
Cn1c(SCC(=O)N(Cc2ccccc2)C(C)(C)C)nc2ccccc21	101	-29	100	i	0.89	-1.9	-4
CC1=CC(C)(C)NC(=O)N1c1ccc(C)cc1	93	-175	34	i	0.87	.	-1
O=C(Nc1ccc(C(=O)O)cc1)/C(=C/c1cccc(Br)c1)NC(=O)c1ccco1	113	18	87	i	0.79	.	3
COc1ccc(N2CCN(C(=O)CSc3ccccc3N)CC2)cc1	102	59	82	i	0.82	0.0	-14
CCn1c2c(c(C)cc1=O)C(=O)CC(C)(C)C2	101	27	105	i	1.1	-0.7	-8
COc1cc(CNn2cnnc2)ccc1OCC(=O)NC1CCCCC1	98	-100	64	i	0.77	-1.5	-1
Cn1nc(C(F)(F)F)c(/C=N/OC(=O)c2ccccc2)c1SCc1ccccc1Cl	100	12	67	i	1	-1.3	-9
O=C(Nc1ccc2c(c1)OCO2)C(c1ccc(Cl)cc1)N1CCC2(CC1)OCCO2 (centres undefined)	97	.	.	i	0.99	-3.7	6
C/C(CC(=O)NCc1ccc(Cl)cc1)=N\NC(=O)Cc1ccccc1	85	21	132	i	0.97	-0.1	-1

One compound at a time, from the list above. Order of screens: RGS16-Gao | Insulin prom inh | Insulin prom inh cell count | HSV augment | HSV augment primary fold | GALR2 ag | PKD1 kinase inh
COC(=O)c1ccccc1NC(=O)CCS(=O)(=O)c1ccc(Br)s1 as listed: 102 | -12 | 122 | i | 0.77 | -2.8 | -3
CC1=CC(C)(C)NC(=O)N1c1ccc(C)cc1 as listed: 93 | -175 | 34 | i | 0.87 | . | -1

Continuation.
SMILES	RGS16-Gao	Insulin prom inh	Insulin prom inh cell count	HSV augment	HSV augment primary fold	GALR2 ag	PKD1 kinase inh
CC(CC(=O)Nc1nc2ccccc2[nH]1)n1ccnc1 (centres undefined)	102	.	.	i	0.96	.	-3
O=C(CCN1c2ccccc2Sc2ccccc21)OCC(=O)N1CCN(C(=O)c2ccco2)CC1	100	.	.	i	0.93	-0.5	1
Cc1ccc(C2C=C(c3ccc4c(c3)OCO4)Nc3ncnn32)cc1 (centres undefined)	104	0	69	.	.	-2.4	-10
O=C(COc1ccc(Br)cc1F)NC1CCN(Cc2ccccc2)CC1	99	-43	87	.	.	-1.5	-4
O=C1NC2(CCCCC2)Cc2ccccc21	102	-45	85	i	1.2	-0.6	2
CN(c1ccccc1)S(=O)(=O)c1cccc(C(=O)OCC(=O)NCCCN2CCCC2=O)c1	94	.	.	i	0.86	.	-4
O=C(CCC(=O)N(CC(=O)NC1CCCC1)Cc1ccc2c(c1)OCO2)Nc1nccs1	107	-87	77	i	0.97	.	3
CCC(C)NC(=O)c1ccc(COc2ccccc2Cl)cc1 (centres undefined)	98	.	.	i	0.84	-1.0	3
CN1CCN(C(=O)C2=C[C@H](c3csc4ccccc34)C[C@H](OCc3ccc(CO)cc3)O2)CC1	100	.	.	i	0.65	.	3
Cc1ccc2cc(C)c3nnc(SCC(=O)N4CCN(C(=O)c5ccco5)CC4)n3c2c1	103	.	.	i	1.1	-0.8	-1
c1ccc2sc(SCc3ccc(-c4nnco4)cc3)nc2c1	83	-10	78	i	0.85	-3.5	-6
COc1cc(/C=N/NC(=O)c2ccc(O)cc2)ccc1OCC(=O)N1CC(C)OC(C)C1 (centres undefined)	101	.	.	i	0.97	.	.
CC(C)(C)OC(=O)NCCCCCc1nnc(SCc2ccccc2F)o1	99	.	.	i	1	.	.
CCc1cc2c(=O)[nH]c(Cc3ccc(OC)cc3)nc2s1	16*	26	71	i	1	-0.5	2
COc1ccccc1OCC(=O)N/N=C/C=C/c1ccc([N+](=O)[O-])o1	98	-161	82	i	0.86	-0.5	-11

Arranged by SMILES length (rising): five of the compounds above.
SMILES	RGS16-Gao	Insulin prom inh	Insulin prom inh cell count	HSV augment	HSV augment primary fold	GALR2 ag	PKD1 kinase inh
CCC(C)NC(=O)c1ccc(COc2ccccc2Cl)cc1 (centres undefined)	98	.	.	i	0.84	-1.0	3
CCc1cc2c(=O)[nH]c(Cc3ccc(OC)cc3)nc2s1	16*	26	71	i	1	-0.5	2
O=C(COc1ccc(Br)cc1F)NC1CCN(Cc2ccccc2)CC1	99	-43	87	.	.	-1.5	-4
Cc1ccc2cc(C)c3nnc(SCC(=O)N4CCN(C(=O)c5ccco5)CC4)n3c2c1	103	.	.	i	1.1	-0.8	-1
COc1cc(/C=N/NC(=O)c2ccc(O)cc2)ccc1OCC(=O)N1CC(C)OC(C)C1 (centres undefined)	101	.	.	i	0.97	.	.

The list goes on:
SMILES	RGS16-Gao	Insulin prom inh	Insulin prom inh cell count	HSV augment	HSV augment primary fold	GALR2 ag	PKD1 kinase inh
COC(=O)/C=C1/S/C(=N/NC(=O)c2ccccc2)NC1=O	99	0	159	i	0.86	-0.1	-7
O=C1CC(c2ccc3c(c2)OCO3)CN1 (centres undefined)	93	.	.	i	1	-2.0	2
COC(=O)c1ccc2c(=O)n(CCN3CCOCC3)c(=S)[nH]c2c1	195	68	87	i	1.2	0.3	-4
COc1ccc(-c2ccc(SCC(=O)N3CCCC3)nn2)cc1OC	104	.	.	i	0.89	-2.0	0
COC(=O)c1nn(Cc2ccccc2)c(=O)c2ccccc12	104	31	147	i	0.96	0.4	0
CC(C)CNC(=O)NC(=O)COC(=O)c1cc(F)cc(F)c1	110	-333	118	i	1	-0.6	-3
CCCC(c1nnnn1CCOC)N1CCN(c2nc3ccccc3s2)CC1 (centres undefined)	87	17	66	i	0.91	.	-7
CC1CN(c2oc(COc3ccc(Cl)cc3Cl)nc2C#N)CC(C)O1 (centres undefined)	100	-123	128	i	0.94	-0.9	-6
CCOC(=O)C(Cc1ccc(NC(=O)/C(=C\c2ccccc2)NC(=O)c2ccccc2)cc1)N1C(=O)c2ccccc2C1=O (centres undefined)	99	-7	111	i	0.91	-1.0	-5
CC(C)N(Cc1ccccc1)C(=O)COC(=O)c1ccc2c(c1)OCCO2	96	32	185	i	0.96	-1.4	-1
Brc1ccc(-c2csc3ncnc(-n4nnc5ccccc54)c23)cc1	96	-20	117	i	1	-0.9	8
COc1ccc(-n2nc(C(=O)NCC(=O)NCC3COc4ccccc4O3)c3ccccc3c2=O)c(OC)c1 (centres undefined)	101	.	.	i	0.91	.	-3
Cc1ccc(S(=O)(=O)NCC(=O)OC2CCOC2=O)cc1 (centres undefined)	103	.	.	i	0.99	-0.5	5
CC(C)(C)/C(O)=C(/C#N)c1nc2ccccc2[nH]1	98	3	132	i	0.82	-0.1	-2
Cc1ccc(S(=O)(=O)N2CCN(C(=O)CC(C)C)CC2)cc1	112	-4	54	i	1	.	-4
NC(=O)Nc1cccc2ccccc12	100	-47	126	i	0.94	1.8	2
Cc1cc(C)n2cc(CSc3nc4cc(Cl)ccc4o3)nc2n1	103	27	116	i	0.95	-1.5	8
CCOc1ccc(-c2nc(-c3ccccc3)no2)cc1OCC	109	.	.	i	0.87	-2.4	-2
Cn1c(SCC(=O)N2CCCCC2)nc2c([nH]c3ccccc32)c1=O	103	.	.	i	0.8	-0.4	-15
O=C1c2ccc(-c3nc4ccccc4o3)cc2C(=O)N1Cc1ccccc1	.	.	.	.	.	-0.7	-10
COC(=O)c1oc2ccc(Br)cc2c1-n1cccc1	64	.	.	i	1.1	-0.3	13
Cc1ccc(OCc2ccc(C(=O)Nc3ccc(S(N)(=O)=O)cc3)o2)cc1	104	.	.	i	0.97	.	-3
CC1CCN(c2ccc(C(=O)NCc3cccs3)cn2)CC1	101	.	.	i	0.82	-0.9	8
CC(C)c1cccc(C(C)C)c1NC(=O)COC(=O)[C@H](C)NC(N)=O	98	62	101	i	0.95	.	-3
Cc1ccc(P(=Nc2ccccc2)(N2CCOCC2)N2CCOCC2)o1	87	.	.	i	0.78	-2.2	1
Cc1cccc(NC(=O)NNS(=O)(=O)c2ccc(F)cc2)c1	99	10	91	i	1	0.1	-7
CC1COC(=O)C(NNc2ccc(Cl)c(Cl)c2)=N1 (centres undefined)	113	.	.	i	1	.	7
O=C(CN(C(=O)CCC(=O)Nc1nccs1)c1ccccc1F)NCC1CCCO1 (centres undefined)	104	34	133	i	0.96	-0.4	2
Fc1ccc(N/N=C2/CC(c3ccccc3)Oc3ccccc32)c(F)c1 (centres undefined)	108	-16	97	i	1.1	0.5	-3
CCOCCc1nnc(NC(=O)C(C)Oc2ccccc2)s1 (centres undefined)	103	.	.	i	0.92	.	-3
Cc1cc(C)n(-c2nc3c(c(=O)n(Cc4ccc(Cl)c(Cl)c4)c(=O)n3C)n2C)n1	.	.	.	.	.	-2.2	-9
Cc1ccc(-n2c(=O)[nH]cc(C(=O)Nc3ccc4c(c3)OCCO4)c2=O)cc1C	99	86*	135*	i	1.2	-1.0	-8
CCOc1cc(CNCCN(C)C)c(Cl)cc1OCC(=O)NCCc1ccccc1	115	-5	180	i	0.99	-1.1	2
O=C(CN1CCN(Cc2ccc(Cl)cc2)C1=O)NCCCN1CCN(c2ccc(F)cc2)CC1	97	-17	122	i	0.61	-1.3	-5
Cc1nnc(NCc2ccco2)s1	107	17	127	i	1	-1.0	6
Cc1ccc(C(=O)CSc2ncnc3sc4c(c23)CCC(C)C4)cc1 (centres undefined)	106	8	83	i	0.98	-1.8	-5
COC(=O)C1=C(C)NC(C)=C(C(=O)OC)C1c1ccc(OC(=O)c2oc3ccccc3c2C)c(OC)c1	103	38	101	i	1	-2.2	-10
O=C(COC(=O)/C=C/c1ccc(Cl)cc1Cl)NCc1ccco1	102	.	.	i	1	.	-5
COc1ccc(NC(=O)CCN2C(=O)C3C4CCC(C4)C3C2=O)cc1 (centres undefined)	127	-8	80	i	0.96	-1.7	-4
Cc1cccc(-n2nnc(C(=O)NCc3ccccc3Cl)c2N)c1	88	-7	100	i	0.94	.	-3
COC(=O)C1CCN(S(=O)(=O)Cc2ccccc2)CC1	105	.	.	i	0.89	-1.9	-8
COc1ccc(NC(=S)N2CCC(C(=O)N3CCCCCC3)CC2)cc1	84	.	.	i	1.2	-2.6	-4
Cc1ccc2[nH]c(=O)c(CN(Cc3cccs3)C(=S)NCc3ccco3)cc2c1	129	-60	107	i	0.7	-0.1	-12
N#Cc1sc2nc(-c3cccs3)cc(-c3ccc(Cl)cc3)c2c1N	88	.	.	i	1.1	-2.5	-12
CCOC(=O)Cn1c(=O)oc2cc(S(=O)(=O)Nc3ccc(F)cc3)ccc21	110	.	.	i	0.89	-0.7	-3
COc1ccc(OC)c2[nH]c(=O)c(CCNC(=O)c3ccc(S(=O)(=O)N4CCCC4)cc3)cc12	97	-9	94	.	.	-1.4	-1
Cc1ccccc1NC(=O)Cc1nnc(SCC(=O)N2CCN(c3ccccc3)CC2)n1C	96	.	.	i	0.95	-1.8	2
O=C(CN1C(=O)C2C3C=CC(C3)C2C1=O)Nc1cccc(S(=O)(=O)N2CCCC2)c1 (centres undefined)	110	100*	1.1*	i	0.96	-0.7	1
Cc1ccc2cccc(Oc3ncnc4scc(-c5ccc(Cl)cc5)c34)c2n1	81	.	.	i	1.2	0.0	-3
Cc1ccc(/C=N/NC(=O)CN2CCN(Cc3ccccc3)CC2)o1	86	.	.	i	1	.	.
Cc1ccc(OCc2nnc(SCc3cc(=O)[nH]c4ccccc34)n2-c2ccccc2)cc1	106	-67	152	i	0.82	0.3	12
Cc1cc2c(n1-c1ccc(Cl)cc1)CC(C)(C)CC2=O	102	27	106	i	0.8	-0.2	-13
COC(=O)Cn1c(O)c(N=NC(=O)c2ccc3c(c2)OCO3)c2ccccc21	104	.	.	i	0.87	.	-4
O=c1cc(CSc2nnc(-c3cccnc3)n2-c2ccccc2F)nc2sccn12	46	-27	121	i	0.72	-2.3	-7
Cc1oc(-c2ccc(Cl)cc2)cc1C(=O)/C(C#N)=C/Nc1ccccc1	98	.	.	i	1.3	.	.
O=C(COC(=O)c1ccc(Cl)nc1)NCc1cccs1	123	.	.	i	1.1	.	-1
O=C(NCCCN1CCOCC1)C(=O)NCC1CCCO1 (centres undefined)	107	-14	124	i	1	1.4	-4
c1ccc2[nH]c(NCCCN3CCOCC3)nc2c1	101	-30	95	i	1	-1.6	10
